Assay outcomes (PubChem)
HPGD block: qHTS Assay for Inhibitors of HPGD (15-Hydroxyprostaglandin Dehydrogenase); 15-hydroxyprostaglandin dehydrogenase [NAD(+)] (Homo sapiens), P15428; purified HPGD, NADH fluorescence kinetic, PGE2 substrate; Potency, µM, without a hit: at the highest dose activity change, negative = inhibition, actives largely listed as inhibitors; actives 4.3% (n = 150,000); active = well fitted inhibition curve with a large enough effect (not every such curve was filed as active); inconclusive = small, poorly fitted or top-dose-only effect, or another doubt; inactive = no such curve, though single readings can be large or run the other way;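 also: top concentration of the series not given in the record; plate controls included wells without enzyme; inactives centre near -10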
Target sequence (P15428 whole entry, looked up): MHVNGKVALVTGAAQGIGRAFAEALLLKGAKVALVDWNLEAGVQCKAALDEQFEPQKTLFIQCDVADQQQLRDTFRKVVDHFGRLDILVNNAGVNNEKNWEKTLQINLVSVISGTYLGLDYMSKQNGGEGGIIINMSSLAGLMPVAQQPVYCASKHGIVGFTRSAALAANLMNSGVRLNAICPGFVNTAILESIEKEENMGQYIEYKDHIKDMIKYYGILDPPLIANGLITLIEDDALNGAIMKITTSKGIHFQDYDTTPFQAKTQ
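20 nM HPGD preincubated 15 min at room temperature with compound in 50 mM Tris-HCl pH 8, 0.01% Tween 20. Started with 1 mM NAD+ and 30 uM prostaglandin E2; NADH fluorescence (360/450 nm) read 5 times over 30-s intervals, last minus first.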
* = called active by the depositor; ? = inconclusive; & = joins results of further samples. % is scaled to controls: 0 for no effect and ±100 for the full control effect; potency is read from the fitted curve at half-maximal effect.

Molecule,HPGD block
CC(=NCc1cccnc1)c1c(O)n(-c2ccccc2)c(=O)[nH]c1=O,-3%
Nc1c(C(=O)NCc2ccco2)c2nc3ccccc3nc2n1Cc1ccccc1,?
CCC(=NCC1CCCO1)c1c(O)[nH]c(=O)[nH]c1=O (stereo not given),-10%
CCCN(CCC)[C@@H]1CCc2ccc(O)cc2C1,-21%&0%
CCOc1ccc(NC(=O)c2ccc(NC(=O)COC(=O)Cc3ccccc3)cc2)cc1,-10%
COCCNC(=O)c1c(N)n(CCC(C)C)c2nc3ccccc3nc12,?
O=C(C(Cc1ccccc1)NS(=O)(=O)c1ccc(F)cc1)N1CCC2(CC1)OCCO2 (stereo not given),-16%
CN(C=O)CP(=O)(O)CN(C)C=O,-4%
CC(C)(C)OC(=O)c1c(N)n(Cc2ccco2)c2nc3ccccc3nc12,?
CCCCNC(=O)c1c(N)n(Cc2ccc3c(c2)OCO3)c2nc3ccccc3nc12,-19%
O=C1C[C@@H]2OCC=C3CN4CC[C@]56c7ccccc7N1[C@@H]5[C@@H]2[C@H]3C[C@H]46 (tested in a mixture with another compound),-7%
COc1ccc(C(Nc2ccccc2)P(=O)(Oc2ccccc2)Oc2ccccc2)cc1 (stereo not given),-24%
CCOP(=S)(OCC)SCC(=O)NC(C(=O)O)C(C)C (stereo not given),-16%
O=C(Oc1ccccc1)N1CCC2(CCN(Cc3nccs3)CC2)CC1,-1%
O=C(O)CCl,-9%
COc1ccc2c(c1OC)C(=O)O[C@H]2[C@H]1c2cc3c(cc2CCN1C)OCO3,-1%
C#CCOS(=O)OC1CCCCC1Oc1ccc(C(C)(C)C)cc1 (stereo not given),-19%
N#CCCCCC#N,-22%
C[C@H]1CN(C2CCC(C#N)(c3ccc(F)cc3)CC2)CC[C@@]1(C(=O)O)c1ccccc1 (stereo not given in full),2%
O=c1c2ccccc2nc(CSc2ncnc3nc[nH]c23)n1-c1ccc(Cl)c(Cl)c1,-12%
N[C@@H](Cc1c[nH]c2ccccc12)c1nnc(SCc2ccc(Cl)cc2)o1,-16%
CCCCn1c(O)c(C(C)=Nc2ccc(OCC)cc2)c(=O)[nH]c1=O,-19%
COc1cc2c(cc1OC)[C@]13CC[N@+]4(C)CC5=CCO[C@H]6CC(=O)N2[C@@H]1C6[C@@H]5C[C@]34O (stereo not given in full),-1%
CCCc1nc2ccccc2c(=O)n1-c1cccc(OC)c1,-3%
CNCCc1c[nH]c2ccc(O)cc12,-5%&5%
COc1ccc2c(c1)CC1(CN2C)C(=O)NC(=O)N(c2ccc(C)cc2)C1=O (stereo not given),-18%
Clc1cccc(C(Cl)(Cl)Cl)n1,-2%
CC(=O)Oc1c2c(c(CC=C(C)C)c3c1C(=O)C1=CC4CC5C(C)(C)OC(C/C=C(\C)C(=O)O)(C4=O)[C@]15O3)OC(C)(CCC=C(C)C)C=C2 (stereo not given in full),28µM*
Cc1c([C@@H](C)C2NC[C@H](C)C[C@@H]2O)ccc2c1C[C@@H]1[C@H]2CC=C2C[C@@H](O)CC[C@@]21C (stereo not given in full),-11%
Cc1[nH]c2ccc(O)cc2c1CCN,-6%&-6%
O=C(NCCCN1CCOCC1)C(Cl)(Cl)Cl,-14%
Fc1ccc(C(OCCN2CCN(C/C=C\c3ccccc3)CC2)c2ccc(F)cc2)cc1,-13%
N#Cc1ccc(Cn2cc(C(=O)c3ccco3)c3ccccc32)cc1,-1%
S=c1[nH]c2ccccc2[nH]1,-5%
C[N+]1(CC(COCc2ccccc2)OC(=O)Cc2ccccc2)CCOCC1 (stereo not given),-9%
C=C1C2C[C@H](O)C(C)(C)[C@@]2(O)[C@H](O)C[C@]23C[C@@](C)(O)[C@H](CC[C@H]12)[C@H]3OC(C)=O (stereo not given in full),-13%
Oc1ccc2c3c1OC1C(O)CC[C@]4(O)C(C2)N(CC2CCC2)CC[C@]314 (stereo not given in full),-1%
Cc1ccc(-n2c(O)c(/C=N/NC(=O)c3ccncc3)c(=O)[nH]c2=O)cc1C,-17%
O=C/C=C/c1ccccc1,-9%&-5%&-15%
C=CCN1C(=O)C2(C(C(=O)OCC)=C(N)Oc3ccccc32)C2=C1CCCC2=O (stereo not given),-6%
Cc1ccc(S(=O)(=O)N2CC3CC(C2)c2cccc(=O)n2C3)cc1 (stereo not given),-9%
Cc1[nH]c2ccccc2c1CCCNC1CCCCC1,-13%
N/C(=N\N=C\c1ccc(O)cc1O)N[N+](=O)[O-],-14%
CC(C)(C)[C@]1(O)C[C@@H]2OC(=O)CC23C(=O)O[C@@H]2OC(=O)[C@H](O)C231 (stereo not given in full),0%
C/C(=C\C=C/[C@@H](C)C(=O)O)[C@H]1CN[C@H](C(=O)O)[C@@H]1CC(=O)O,-12%
CCCBr,-3%
CCN(CC)c1ccc(/C=C2/C(=O)NC(=O)N(Cc3ccco3)C2=O)cc1,10µM*
Cc1[nH]c2ccc(Cl)cc2c1C1=CCNCC1,-3%
COc1cc2c(cc1O)C(CCc1ccc(Cl)cc1)N(C)CC2 (stereo not given),-8%
COC(=O)c1cc(C(O)(C(=O)OC)C(F)(F)F)c(/N=C/N(C)C)s1 (stereo not given),-12%
Fc1ccc(Cn2nnnc2C(c2ccc(Cl)cc2)N2CC=C(c3ccc(F)cc3)CC2)cc1 (stereo not given),-14%
CC1CC(O)[C@]2(O)[C@]13CC(=O)OC[C@@]2(C)[C@@](C)(O)C(=O)C3 (stereo not given in full),-4%
Oc1ccc2c3c1O[C@H]1c4oc5ccccc5c4C[C@]4(O)[C@H](C2)N(CC2CC2)CC[C@@]314,-6%
O=C(c1ccco1)N1CCC2(CC1)CN(Cc1ccncc1)C2,-4%
COC(=O)C(O)(c1c(C)[nH]n(-c2ccccc2)c1=O)C(F)(F)F (stereo not given),-1%
CC(C)(C)NC[C@H](O)c1cc(Cl)c(N)c(Cl)c1,-2%
CCCCn1c(O)c(C(CC)=Nc2ccc(OC)cc2OC)c(=O)[nH]c1=O,16µM*
CCOC(=O)c1c(NS(=O)(=O)c2ccccc2)n(CCCOC)c2nc3ccccc3nc12,?
Cc1cc(Cl)ccc1OCC(=O)N1CCN(C)CC1,-9%
O=C(CNC(=O)c1cccc(Cl)c1)Nc1ccc(Br)cc1C(=O)c1ccccc1,-7%

Going on with the list:
Molecule,HPGD block
O=C(NC1(C(F)(F)F)Oc2ccccc2O1)N1CCC2(CC1)OCCO2,?
O=C1NC(=S)N(c2ccccc2F)C(=O)/C1=C\c1cccs1,7.9µM*
CC1(C)CN2C(c3ccc(Cl)cc3)N2C1 (stereo not given),-6%
O=C(c1ccc2nc(-c3ccco3)c(-c3ccco3)nc2c1)N1CCC2(CC1)OCCO2,?
C=C(C)[C@H]1Cc2c(ccc3c2O[C@@H]2COc4cc(OC)c(OC)cc4[C@@H]2C3=O)O1,-12%&0%
c1ccc2c(c1)CSc1ccccc1C2C1=NCCN1 (stereo not given),-9%
CN(C)CCCN=Cc1c(O)n(CCc2ccccc2)c(=O)[nH]c1=O,-1%
N[C@@H](Cc1ccc(N(CCCl)CCCl)cc1)C(=O)O,-21%
COC(C)C(O)(C(=O)OC1=CCN2CC[C@H](O)[C@H]12)C(C)C (stereo not given in full),4%
O=C(Nc1ccccc1)N1CCC2(CC1)CCN(C(=O)Oc1ccccc1)CC2,-6%
COc1cc2occc2c2oc(=O)ccc12,-16%&-7%&-19%
O=C(c1cc(-c2ccc(Cl)cc2)n(-c2ccc(Cl)cc2Cl)n1)N1CCOCC1,-21%
CNC(=O)OCC[N+](C)(C)C,-8%
ClCC(Cl)Cl,-5%
C[C@]12CCC(=O)C=C1CCC1C2CC[C@@]2(C)C1CC[C@@]2(O)CC#N (stereo not given in full),3%
CCc1nc2ccccc2c(=O)n1-c1cccc(OC)c1,-9%
COc1cccc(NP(=O)(Oc2ccccc2Cl)Oc2ccccc2Cl)c1,3%
Oc1ccc2[nH]cc(CCCCN3CC=C(c4ccccc4)CC3)c2c1,2%
NCC(O)c1ccc(O)cc1 (stereo not given),-1%&5%&-11%&-5%&-12%
Cn1c(O)c(C(c2ccncc2)c2c(O)n(C)c(=S)n(C)c2=O)c(=O)n(C)c1=S,-3%
COC(=O)C(O)(c1ccc(NC(=O)Oc2ccccc2)cc1)C(F)(F)F (stereo not given),-1%
CC(C)CCCC1(C)C=Cc2c(O)c3c(c(CCC(C)C)c2O1)OC12C(CC4CC1C(C)(C)OC2(CCC(C)C(=O)O)C4O)C3=O (stereo not given),-9%
CCCCOP(=O)(OCCCC)/C(C#N)=C(/C)O,-15%
CCC[CH2][Sn]([Cl])([Cl])[Cl],-3%
N=C(N)c1ccc(-c2ccc(-c3ccc(C(=N)N)cc3)o2)cc1,?
CC(=O)NC1CC2CCCC(C1)N2 (stereo not given),-14%
CCCCC/C=C\C/C=C\C/C=C\CCCCC(=O)NCCO,-3%
CCC1(c2ccccc2)C(=O)NC(=O)NC1=O,-4%
CCN(CC)C(=O)c1ccc(NC(=O)c2cc(-n3cnnc3)ccc2Cl)cc1,1.4µM*
CCCC[N+]12CCC(CC1)C(C(=O)c1cccs1)C2 (stereo not given),-7%

Fetched one by one from the list above, 4 records:
Molecule,HPGD block
COc1cc2occc2c2oc(=O)ccc12,-16%&-7%&-19%
C[C@]12CCC(=O)C=C1CCC1C2CC[C@@]2(C)C1CC[C@@]2(O)CC#N (stereo not given in full),3%
CCCCC/C=C\C/C=C\C/C=C\CCCCC(=O)NCCO,-3%
O=C1NC(=S)N(c2ccccc2F)C(=O)/C1=C\c1cccs1,7.9µM*

Later entries.
Molecule,HPGD block
Cc1ccccc1[N+](=O)[O-],-7%
O=C1NC(=O)C(CCc2ccccn2)(Cc2ccc3c(c2)OCO3)C(=O)N1CCc1ccccc1 (stereo not given),-14%
Clc1ccc2c(N3CCNCC3)ccnc2c1,-2%
O=C1NC(=S)N(C2CC2)C(=O)/C1=C/c1ccc2c(c1)CCN2CCCCl,11µM*
Cc1ccnc(-n2c(C)cc(/C=C3\C(=O)NC(=S)N(C)C3=O)c2C)c1,20µM*
CC(Cc1ccccc1)[n+]1cc(/N=C(\[O-])N(C)C)on1 (stereo not given),-14%
CCn1c(=O)cc(OCC(=O)N2CCC3(CC2)OCCO3)c2ccccc21,0%
Cc1nc2ccc(Nc3nc4cc(S(=O)(=O)N5CCOCC5)ccc4o3)cc2s1,8.9µM*
Cc1cc(Cl)ccc1OC(C)C(=O)O (stereo not given),-2%
CN1C(=O)N(C)C(=O)C2(Sc3ccccc3C2=O)C1=O,-19%
COC(=O)C[C@]1(C(=O)OC)CN(C#N)N(c2ccc(Cl)cc2)C12c1ccccc1-c1ccccc12,-26%
Cc1ccc(O)cc1 (tested in a mixture with another compound),-19%
Cc1nc2ccccc2c(=O)n1-n1cnnc1,-5%
C[C@]12CC[C@@H]3[C@H](CCC4=CC(=O)CC[C@]43C)[C@]1(O)CC[C@@]2(O)C(=O)CO,-7%
Cc1cc(C=C2C(=O)N(C)C(=S)N(C)C2=O)c(C)n1C1CCCCC1,-10%
O=C(Nc1ccccc1)Oc1ccccc1,2%
CNC(=O)Oc1cccc2c1OC(C)(C)C2,-8%
CN(C)CC1CCCCC1OC(=O)c1ccc(Cl)c(Cl)c1 (stereo not given),-2%
NNCc1cccc(O)c1,-10%
CCCCn1cnc2cc(NCc3cccc(OC)c3O)ccc21,?
C=CCn1c(O)c(C=Nc2ccc(N(CC)CC)cc2)c(=O)[nH]c1=O,-21%
CCC1(CC)C(=O)C=CNC1=O,-16%&-9%
CCCCn1c(O)c(C(CC)=NCc2ccc3c(c2)OCO3)c(=O)[nH]c1=O,-4%
CC(C)c1ccc(C2N3CCCN23)cc1 (stereo not given),?
CCOC(=O)c1c(-n2c(C)cc(C=C3C(=O)NC(=S)NC3=O)c2C)sc2c1CCCC2,3.5µM*
Cc1cc(C)[n+](C2C3CC4CC(C3)CC2C4)o1 (stereo not given),2%
O=C(c1ccccc1)c1cn(CC(=O)N2CCOCC2)c2ccccc12,-13%
Cc1nc(Cl)sc1C(=O)Nc1ccc2ccccc2c1,-12%
Clc1cccc(N2CCNCC2)c1Cl,2%
Cc1ccc(N=C=O)cc1N=C=O,-3%
C=CCN1C(=O)NC(=O)/C(=C/c2ccoc2)C1=O,25µM*
CCOc1cc(C(=O)N2CCC3(CC2)OCCO3)cc(OCC)c1OCC,-6%
C[N+]1(C)CCOC(O)(c2ccc(-c3ccc(C4(O)C[N+](C)(C)CCO4)cc3)cc2)C1 (stereo not given),-14%&-15%
Cc1ccc(C2(O)CCN3CCCCC32)cc1 (stereo not given),-5%
CC(C)C[C@H]1C(=O)N2CCC[C@@H]2[C@@]2(O)O[C@](NC(=O)[C@@H]3C=C4c5cccc6[nH]cc(c56)C[C@@H]4N(C)C3)(C(C)C)C(=O)N12,?
NC(N)=Nc1ccc2[nH]c3c(c2c1)C[C@]1(O)[C@@H]2Cc4ccc(O)c5c4[C@]1(CCN2CC1CC1)[C@@H]3O5,-14%
O=C1C=C2C=C[C@H]3C[C@@]2(O1)[C@H]1CCCCN31,-2%

Only part of the results is shown; count on the stated rates, not on these rows.
